# Screening results deposited in PubChem by National Center for Advancing Translational Sciences (NCATS).
# D2 PAM = human D2 receptor positive allosteric modulation. P14416. DiscoveRx D2 beta-arrestin cells, luminescence, 90 min; 100% = 57 uM dopamine signal. potentiation, % (no concentration beside the values). 360,000 compounds, 0.23% hits; active = potentiation of 50% or more; inconclusive = 30% to 50%; inactive = 30% or less;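 note: compound concentration not given in the record; tested on top of an EC20 dose of dopamine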
#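 PathHunter beta-arrestin assay in DiscoveRx D2 cells. Compounds were added with an EC20 of dopamine (50 nM final) for 90 min at 37 deg C. Luminescence was read 1 h after detection reagent, with 57 uM dopamine as the EC100 control.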
# Sfp PPTase inh = inhibitors of Bacillus subtilis Sfp phosphopantetheinyl transferase. Biochemical Sfp PPTase activity, qHTS. Potency, µM, without a hit: max response, negative = inhibition, usual class: inhibitors. Q9F4F7. 310,000 compounds, 3.5% hits; active = well fitted inhibition curve with a large enough effect; inconclusive = small, poorly fitted or top-dose-only effect, or another doubt; inactive = no such curve, though single readings can be large or run the other way;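 note: the enzyme is Sfp with the accession as filed and its product quenches rhodamine fluorescence; potency is the fitted concentration of half-maximal effect; 0% = enzyme reaction without inhibitor and -100% = no enzyme wells; top concentration of the series not given in the record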
#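 Fluorescence-quenching assay with 15 nM Sfp, 5 uM rhodamine-CoA and 12.5 uM BHQ-2-labelled ybbR peptide in pH 7.6 Hepes/MgCl2 buffer. Enzyme was pre-incubated with compound for 15 min at room temperature. Rate was taken from the 30-min fluorescence change (525/598 nm).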
# D2 agonist = agonists of human D2 dopamine receptor (beta-arrestin). P14416. DiscoveRx PathHunter D2 beta-arrestin, luminescence, 90 min; 100% = 57 uM dopamine signal. activation, % (test concentration not listed). 360,000 compounds, 0.084% hits. AID 624465; in the data active = activation above about 40%; inconclusive = about 15% to 40%; inactive = below about 15%; note: compound concentration not given in the record; the text of the record calls up to 30% inactive
#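 DiscoveRx PathHunter D2 beta-arrestin cells (2,100/well) attached overnight, then compound-stimulated 90 min at 37 C in HBSS/10 mM HEPES/0.1% Tween-20 buffer; beta-galactosidase complementation read by luminescence after 1 h at ambient temperature. Dopamine 57 uM final (EC100) as control.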
# Six1-Eya2 blk = blocks human Six1 binding to Eya2 | AlphaScreen GST-Six1/His-Eya2 binding, biochemical; stronger effect = lower value; control for the full effect not named in the record | activity change, % (no concentration beside the values) | 360,000 compounds, 0.56% hits; in the data active = activity change below about -65%; inconclusive = about -30% to -65%; inactive = above about -30%; note: % is set by controls: 0 for no effect and ±100 for the full control effect
# Target sequence (O00167 whole entry, looked up): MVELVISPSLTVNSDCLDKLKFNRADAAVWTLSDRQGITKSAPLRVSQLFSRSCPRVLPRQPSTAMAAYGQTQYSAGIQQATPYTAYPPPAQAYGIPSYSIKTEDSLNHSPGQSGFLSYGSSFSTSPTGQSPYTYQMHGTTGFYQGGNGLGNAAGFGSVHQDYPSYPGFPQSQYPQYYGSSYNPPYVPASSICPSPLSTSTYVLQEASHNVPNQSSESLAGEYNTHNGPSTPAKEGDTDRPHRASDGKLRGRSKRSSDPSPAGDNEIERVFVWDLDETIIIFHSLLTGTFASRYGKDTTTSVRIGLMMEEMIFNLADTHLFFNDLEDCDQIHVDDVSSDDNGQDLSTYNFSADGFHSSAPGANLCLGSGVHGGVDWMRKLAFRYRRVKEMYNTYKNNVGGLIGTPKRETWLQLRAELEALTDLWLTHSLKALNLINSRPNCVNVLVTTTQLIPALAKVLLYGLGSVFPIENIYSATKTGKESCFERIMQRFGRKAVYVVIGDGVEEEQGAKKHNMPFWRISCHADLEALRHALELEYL
# Target sequence (Q15475 whole entry, looked up): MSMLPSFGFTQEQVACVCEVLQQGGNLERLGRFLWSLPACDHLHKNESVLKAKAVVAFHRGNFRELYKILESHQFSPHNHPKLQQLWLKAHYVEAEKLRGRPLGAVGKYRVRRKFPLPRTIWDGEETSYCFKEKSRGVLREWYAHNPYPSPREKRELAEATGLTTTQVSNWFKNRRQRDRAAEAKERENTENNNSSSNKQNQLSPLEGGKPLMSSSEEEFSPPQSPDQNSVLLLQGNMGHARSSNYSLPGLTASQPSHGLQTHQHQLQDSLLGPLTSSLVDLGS
#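 Six1/Eya2 binding was read as AlphaScreen signal after compounds were pinned into GST-Six1 plus His-tagged Eya2 (5X stock 250/500 nM) in pH 8.0 Tris/NaCl/TCEP buffer, beads added, then incubated 1 h, 37 C, dark.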
# PINK1 expr mod = modulators of PINK1 expression; 410,000 compounds, 0.2% hits; Potency, µM (top dose mostly 76.6 µM), without a hit: at the highest dose activation (PINK1 increase), most hits filed as activators; PINK1 immunofluorescence, high-content cytometry, 24 h; AID 624263; active = well fitted activation curve with a large enough effect; inconclusive = small, poorly fitted or top-dose-only effect; inactive = flat fitted curve, though single readings scatter; cell line not stated here;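 note: potency is the fitted concentration of half-maximal effect; % of control where 0% means no effect; nearly all actives have a fitted effect of over 65% in size; a mitochondrial uncoupler was the plate control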
#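 A stable cell line was treated with compounds at 5 concentrations for 24 hours, with CCCP as control. PINK1 levels and mitochondrial localization were measured by immunofluorescence with mitochondrial, cell and nuclear markers after fixation, read by laser-scanning cytometry.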
# CtBP-E1A blk = blocks the CtBP interaction with E1A; AlphaScreen GST-E1A/His-CtBP binding, 1536-well; stronger effect = lower value; control for the full effect not named in the record; activity change, % (concentration not given with the values); 340,000 compounds, 0.49% hits; AID 651724; in the data active means activity change below about -65%; inconclusive means about -30% to -65%; inactive means above about -30%; note: % is set by controls: 0 for no effect and ±100 for the full control effect
#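 GST-E1A and His-tagged CtBP (125 nM each as 5X stock) were preincubated with pin-transferred compound for 2 h at 37 °C in the dark, then glutathione donor and nickel acceptor beads were added for 1 h before AlphaScreen reading.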
# TRPV1 potentiator = human TRPV1 potentiation; Q8NER1; TRPV1-expressing cells, Fluo-8 calcium influx, capsaicin EC20 potentiation; host cell line not named in the record; control for the full effect not named in the record; potentiation, % at 8.33 µM; 320,000 compounds, 0.02% hits; AID 540277; active means potentiation above 80%; inconclusive means 30% to 80%; inactive means below 30%; note: 0% is about no effect
#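 Cells expressing TRPV1 were dye-loaded with Fluo-8 and read kinetically: 10 s baseline, 3 min after compound (agonist portion), then 2 min after EC20 capsaicin (allosteric enhancer portion). Calcium-bound dye fluorescence at 480/520 nm.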
# Starred values were filed as active, the others as inactive; ? = inconclusive; nt = not tested or not shown; [ ] = another dose, or the depositor's remark.
smiles,D2 PAM,Sfp PPTase inh,D2 agonist,Six1-Eya2 blk,PINK1 expr mod,CtBP-E1A blk,TRPV1 potentiator
O=C(OCCOCn1cc(Br)c(=O)[nH]c1=O)c1ccccc1,-4,nt,-2.3,23,-1.1%,26,nt
CCC(=O)Nc1cc(C(=O)O)ccc1Sc1ccc(C)cc1,-1,12%,-3.9,1,1.0%,2,2
COC(=O)c1ccc(NC(=O)c2ccccc2C(=O)Nc2ccc(C(=O)OC)cc2)cc1,-3,nt,2.9,-1,0.8%,2,nt
O=S1(=O)NC(=NCCc2ccccn2)c2ccccc21,-33,21%,1.3,9,-0.4%,20,-2
Cc1cc2cc(CNC(=S)Nc3ccc(OC(F)F)cc3)ccc2n1C,-7,?,6.8,-17,2.2%,-2,13
O=C(CCn1ccc2ccccc21)NC1CCCc2ccccc21 (stereo unspecified),-22,11%,-1.3,0,-0.4%,3,5
COc1cc(C(=S)N2CCCC2)cc(Cl)c1O,-13,-4%,-2.7,-11,-2.6%,-11,-23
CCOC(=O)C1CCN(C(=O)CC(C)c2ccccc2)CC1 (stereo unspecified),-1,16%,-0.6,3,-2.3%,0,-14
Cc1ccc(S(=O)(=O)N(CC(=O)NCc2ccc(F)cc2)C(=O)N2CCN(C)CC2)cc1,-3,nt,0.9,3,-4.6%,0,1
CCC(=O)Nc1ccc(-c2ccc(N3CCC(C)CC3)nn2)cc1,-4,0%,0.1,-2,0.5%,-3,-7
COc1cccc(C2CC3(CC(C)(C)NC(=S)N3)Oc3cc(O)ccc32)c1 (stereo unspecified),12,-17%,2.1,-14,4.1%,3,-8
FC(F)(F)c1cnc(NNC(=S)Nc2cccnc2)c(Cl)c1,-47,-26%,-6.6,-12,-0.3%,nt,?
COc1cccc(OC)c1C(=O)N1CCN(Cc2ccncc2)CC1,-15,10µM*,-2.0,1,-0.7%,-1,-3
O=C(CSc1ccc(Br)c2cccc(Cl)c12)Nc1ccc(S(=O)(=O)Nc2nccs2)cc1,10,24%,2.5,4,-2.9%,?,18
O=[N+]([O-])c1cc(C(F)(F)F)ccc1N1CCN(S(=O)(=O)c2ccc3c(c2)CCCC3)CC1,-3,1%,-1.4,-29,4.4%,-7,4
Cc1ccc(NCC(=O)N/N=C/c2ccc(C(=O)O)cc2)cc1,-7,-30%,-2.2,1,1.0%,2,-8
Cc1nnc(OC(C)C)c2nn(-c3ccccc3F)c(C)c12,5,14%,-2.6,4,2.2%,-1,-12
COc1cccc(/C=C/C(=O)OCC(=O)N2c3ccccc3NC(=O)C2(C)C)c1,3,11%,2.3,-1,8.6%,7,7
COc1cccc(C(=O)NC2CC(C)(C)NC(C)(C)C2)c1OC,-5,11%,-4.2,7,0.2%,3,6
O=c1[nH]c(C2CCN(S(=O)(=O)c3ccc4c(c3)OCCO4)CC2)nc2c1nnn2Cc1ccccc1F,-12,-5%,-0.7,2,-0.9%,4,9
Cc1ccc(NC(=O)CCc2nnc3ccc(NCc4ccco4)nn23)nc1,-4,1%,7.1,-3,-0.6%,-16,7
CCCCCN(C(=O)CCC(=O)OCC(=O)Nc1ccc(C)cc1F)c1c(N)n(CCCC)c(=O)[nH]c1=O,-10,6%,-3.2,-7,7.2%,-12,2
CCCc1n(CC(O)COCC2CC=CCC2)c2ccccc2[n+]1C (stereo unspecified),-18,15%,-4.6,-17,-0.6%,7,17
Fc1ccccc1N=C1Nc2cccc3cccc1c23,-13,-11%,-1.9,-22,17%,-11,-12
COc1cc2[nH]c(O)c(C=O)c2cc1OC,-5,nt,0.9,-23,0.0%,-22,nt
CCc1[nH]nc(C(=O)N2CCCC(CCC(=O)N3CCN(c4ccccn4)CC3)C2)c1C (stereo unspecified),8,18%,-1.8,-5,0.0%,3,?
CCCCC[C@H]1CN(CCc2ccccc2)C(=O)[C@@H]1CC(=O)NCc1ccc(OC)cc1,-4,-7%,-0.1,-1,0.2%,6,4
Brc1cc2c(cc1Br)OCCOCCOCCO2,3,4%,0.0,0,0.3%,-2,-4
CCC(C)NC(=O)c1ccc2c(c1)S(=O)(=O)c1ccccc1C2=O (stereo unspecified),?,1%,-0.4,-2,2.3%,6,-2
COc1ccccc1Cn1c(=S)[nH]c2cc(C(=O)N3CCN(C)CC3)ccc2c1=O,-12,23%,-1.2,2,6.0%,4,23

# Single records, from the list above. Screens in order: D2 PAM | Sfp PPTase inh | D2 agonist | Six1-Eya2 blk | PINK1 expr mod | CtBP-E1A blk | TRPV1 potentiator
# CCOC(=O)C1CCN(C(=O)CC(C)c2ccccc2)CC1 (stereo unspecified) across the screens: -1 | 16% | -0.6 | 3 | -2.3% | 0 | -14
# O=c1[nH]c(C2CCN(S(=O)(=O)c3ccc4c(c3)OCCO4)CC2)nc2c1nnn2Cc1ccccc1F across the screens: -12 | -5% | -0.7 | 2 | -0.9% | 4 | 9

# Ordered by SMILES length (low to high): some entries from above.
smiles,D2 PAM,Sfp PPTase inh,D2 agonist,Six1-Eya2 blk,PINK1 expr mod,CtBP-E1A blk,TRPV1 potentiator
Brc1cc2c(cc1Br)OCCOCCOCCO2,3,4%,0.0,0,0.3%,-2,-4
CCC(=O)Nc1cc(C(=O)O)ccc1Sc1ccc(C)cc1,-1,12%,-3.9,1,1.0%,2,2
O=C(OCCOCn1cc(Br)c(=O)[nH]c1=O)c1ccccc1,-4,nt,-2.3,23,-1.1%,26,nt

# Exported as labelled records: entries from further up.
> O=C(OCCOCn1cc(Br)c(=O)[nH]c1=O)c1ccccc1
- D2 PAM: -4
- Sfp PPTase inh: nt
- D2 agonist: -2.3
- Six1-Eya2 blk: 23
- PINK1 expr mod: -1.1%
- CtBP-E1A blk: 26
- TRPV1 potentiator: nt

> CCC(=O)Nc1cc(C(=O)O)ccc1Sc1ccc(C)cc1
- D2 PAM: -1
- Sfp PPTase inh: 12%
- D2 agonist: -3.9
- Six1-Eya2 blk: 1
- PINK1 expr mod: 1.0%
- CtBP-E1A blk: 2
- TRPV1 potentiator: 2

# The list goes on.
smiles,D2 PAM,Sfp PPTase inh,D2 agonist,Six1-Eya2 blk,PINK1 expr mod,CtBP-E1A blk,TRPV1 potentiator
O=C(NNC(=O)c1ccco1)Nc1ccccc1,-8,-4%,-2.3,4,2.9%,0,2
Cn1c(-c2sccc2OCc2cccc(C(F)(F)F)c2)n[nH]c1=S,-11,-19%,-0.7,-1,2.8%,nt,-3
CCCc1nc2n[nH]c(N)c2c2c1CCCC2,-5,17%,-0.9,-1,-1.4%,-1,2
Cc1c(NC(=O)c2ccc3c(c2)C(=O)N(Cc2ccco2)C3=O)cccc1C(=O)O,-6,-25%,-0.6,-13,1.7%,-1,1
O=c1oc2ccccc2c(O)c1/C=N/c1ccccn1,-14,11%,-2.6,3,1.9%,7,-9
Cc1ccc(OCC(=O)N/N=C2/SCC(=O)N2Cc2ccccc2)cc1,-1,17%,-2.0,6,-1.1%,1,-4
COc1cc(Cn2c3ccc(NC(=O)CCc4cccnc4)cc3c(=O)n2C)ccc1F,2,nt,2.4,-5,1.1%,-3,nt
Cc1cc(C)cc(NC(=O)CCc2c(C)nn(-c3ccc(N4CCOCC4)nn3)c2C)c1,1,19%,-2.1,-2,2.5%,-6,7
COCCNC(=O)C(=O)N/N=C(\C)CC(=O)Nc1ccc2c(c1)OCO2,-6,-20%,0.7,-2,0.4%,7,-12
O=C(COC(=O)CNC(=O)c1ccccc1F)Nc1ccc2[nH]c(=O)[nH]c2c1,-2,nt,-2.0,-15,0.9%,2,9
CC1(C)Cc2c(sc3nc(-c4ccccc4)oc(=O)c23)CO1,-3,-23%,-3.4,2,4.5%,?,-13
COc1ccc(C(C(=O)NC2CCCCC2)N(C(=O)c2sc(C)nc2C)c2ccc(C(C)=O)cc2)cc1 (stereo unspecified),-28,6%,0.0,1,nt,12,nt
CC(=O)N1CCN(C(=O)c2ccc(NS(=O)(=O)c3ccc4c(c3)OCCO4)cc2)CC1,-2,nt,1.9,9,-3.5%,9,-2
C=CCn1c(=NC(=O)CN2C(=O)CCC2=O)sc2cc(S(N)(=O)=O)ccc21,-9,-1%,0.4,2,4.9%,-13,12
O=C(Nc1ncccc1O)c1ccc(S(=O)(=O)N2CCCCCC2)cc1,-64,nt,0.2,-1,3.0%,4,-17
NNC(=O)Cn1nnc(-c2ccc(C(F)(F)F)cc2)n1,4,16%,-7.1,1,-0.9%,nt,2
Cc1cccc(OCCn2c(S(=O)(=O)O)nc3ccccc32)c1,-4,-13%,-2.4,0,nt,8,?
COc1cccc(N2CC(NS(=O)(=O)c3cccs3)CC2=O)c1 (stereo unspecified),-1,nt,-2.5,9,1.0%,2,3
COC(=O)c1ccc(CSc2nnc(C)n2N)o1,-3,3%,3.6,-4,1.8%,0,-5
COc1ccccc1Nc1c2c(nc3ccccc13)CCC2,-7,11%,0.7,1,?,6,1
CC(=O)C[C@H](O)CC(=O)[C@H]1OC(=O)CC/C=C\Cc2ccccc21,-7,nt,-2.7,11,0.2%,0,6
O=C(CCNC(=O)c1ccco1)NCc1ccccc1,-16,8%,-1.1,6,-3.3%,5,10
CC(C)(C)C1CCc2onc(C(=O)N3CCOCC3)c2C1 (stereo unspecified),-5,1%,-1.8,6,-1.1%[38.3 µM],5,-1
CCN(Cc1ccccc1)C(=O)c1cc(COc2c(F)cccc2F)on1,-1,13%,-0.2,16,0.3%,30,-7

# Sfp PPTase inh, hit marks shown above
structure,D2 PAM,Sfp PPTase inh,D2 agonist,Six1-Eya2 blk,PINK1 expr mod,CtBP-E1A blk
COc1cccc(OC)c1C(=O)N1CCN(Cc2ccncc2)CC1,-15,10µM*,-2.0,1,-0.7%,-1

# The order is random (roughly 3.7% active in at least one column).
